RE007 growth inh = qHTS Assay for Inhibitors of the HIV-1 protein Vpr | 360,000 tested, 0.21% active | Potency, µM (series often up to 92.2 µM), without a hit: at the highest dose activity change, negative = less growth | S. pombe RE007 Vpr strain, BacTiter-Glo ATP luminescence, 24 h; control for the full effect not named in the record; active = well fitted falling curve with a large enough effect; inconclusive = small, poorly fitted or top-dose-only effect; inactive = no such curve, though single readings can be large or run the other way;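 further: on the % scale 0 is the no-effect control and ±100 the full control effect; nearly all actives have a fitted effect of over 50% in size; the assay follows cell death caused by Vpr and the record does not say whether a fall means rescue or toxicity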
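Fission yeast RE007 carrying one integrated HIV-1 vpr copy, seeded at OD 0.01 in PMG+AL medium with 23 nL pinned compound. Grown 24 h at 30 degrees; viability read by BacTiter-Glo luminescence after 5 min.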
NS1 function inh = qHTS Assay for Inhibitors of Influenza NS1 Protein Function | S. cerevisiae slowed by influenza A NS1, growth recovery by OD600 | Potency, µM (doses to about 46.1 µM), without a hit: top-dose activity, positive = more growth | 270,000 tested, 0.4% active | AID 2326, 2010; further: actives are rising curves; nearly all actives have a fitted effect of over 50% in size
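In this qHTS, NS1 from influenza A is expressed in budding yeast, where it slows growth. Cells are switched from glucose to 2% galactose medium (pH 6.0, -URA), treated with compound, and growth recovery is read at OD600.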
Marburg entry inh = qHTS for inhibitors of binding or entry into cells for Marburg Virus; Marburg virus pseudotyped entry inhibition, cell reporter; control for the full effect not named in the record; about a third of the inactives were read at about 46 µM; Potency, µM (doses to about 37.8 µM), inactives show top-dose activity change, negative = inhibition, most hits filed as inhibitors; 300,000 tested, 1.8% active; active = well fitted inhibition curve with a large enough effect; inconclusive = small, poorly fitted or top-dose-only effect, or effect the other way; inactive = flat fitted curve, though single readings scatter; tested in HEK293 cells; about a fifth of its hits are not listed in these tables; further: on the % scale 0 is the no-effect control and ±100 the full control effect; luciferase read-out
Cruzain noTriton = qHTS Assay for Promiscuous and Specific Inhibitors of Cruzain (without detergent); 200,000 tested, 2.3% active; AID 1476, 2009; Cruzipain (Trypanosoma cruzi), P25779; Potency, µM, for the others: max response, negative = inhibition, hits mostly inhibitors; purified cruzain, Z-FR-AMC fluorescence, no detergent; active means well fitted curve in the direction sought with a large enough effect; inconclusive means small, poorly fitted or top-dose-only effect, or another doubt; inactive means no such curve, though single readings can be large; an effect the other way counts as inactive or inconclusive;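 further: plate controls were enzyme without inhibitor for no effect and buffer without enzyme for full effect; nearly all actives have a fitted effect of over 40% in size; top concentration of the series not given in the record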
Target sequence (P25779 123-467 limits assumed): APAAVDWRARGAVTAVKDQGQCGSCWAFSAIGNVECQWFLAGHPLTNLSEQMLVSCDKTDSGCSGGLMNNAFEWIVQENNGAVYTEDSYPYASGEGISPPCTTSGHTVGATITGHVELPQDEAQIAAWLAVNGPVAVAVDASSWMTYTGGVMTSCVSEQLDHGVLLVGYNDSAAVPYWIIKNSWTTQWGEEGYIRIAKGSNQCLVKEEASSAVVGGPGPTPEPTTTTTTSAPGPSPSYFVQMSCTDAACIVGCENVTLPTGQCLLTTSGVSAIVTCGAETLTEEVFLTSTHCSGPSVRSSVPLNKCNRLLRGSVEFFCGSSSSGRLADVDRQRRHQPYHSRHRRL
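Detergent-free condition (0.00005% Triton X-100) in acetate buffer pH 5.5 with DTT. 1.5 nM enzyme and compound were pre-mixed 15 min, then 2 uM Z-FR-AMC substrate added; reaction progress from fluorescence change between first and third reads (60 s).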
Lassa entry inh = qHTS for Inhibitors of binding or entry into cells for Lassa Virus | Lassa virus pseudotype entry inhibition, cell reporter; control for the full effect not named in the record | Potency, µM (highest dose often 37.9 µM), inactives show at the top dose activity change, negative = inhibition, most hits filed as inhibitors | 300,000 tested, 1.2% active; active means well fitted inhibition curve with a large enough effect; inconclusive means small, poorly fitted or top-dose-only effect, or effect the other way; inactive means flat fitted curve, though single readings scatter; tested in HEK293 cells; further: on the % scale 0 is the no-effect control and ±100 the full control effect; nearly all actives have a fitted effect of over 50% in size; luciferase read-out
2A StopGo = High Throughput Screening for Foot and Mouth Disease Virus Antivirals. human cells with a luciferase reporter of 2A StopGo recoding; control for the full effect not named in the record. Potency, µM (top dose mostly 57.9 µM), for the others: top-dose signal change, negative = less light. 410,000 tested, 1.2% active. AID 1159524, 2015; active = well fitted falling curve with a large enough effect; inconclusive = small, poorly fitted or top-dose-only effect; inactive = no such curve, though single readings can be large or run the other way; tested in HEK293T cells; further: on the % scale 0 is the no-effect control and ±100 the full control effect; nearly all actives have a fitted effect of over 45% in size; luciferase light after 4 h
SARS PLP yeast = qHTS of Yeast-based Assay for SARS-CoV PLP. S. cerevisiae expressing SARS-CoV PLpro, growth rescue; control for the full effect not named in the record. Potency, µM (highest dose often 32.9 µM), inactives show at the highest dose activity, positive = growth rescue. 330,000 tested, 0.19% active; further: 0% is about no effect; nearly all actives have a fitted effect of over 55% in size; growth read by luminescence after 48 h
Cruzain inh Det = qHTS Assay for Promiscuous and Specific Inhibitors of Cruzain (with detergent) | Cruzipain (Trypanosoma cruzi), P25779 | purified cruzain, Z-FR-AMC fluorescence, 0.01% Triton | Potency, µM, for the others: max response, negative = inhibition, actives largely listed as inhibitors | 200,000 tested, 0.43% active | AID 1478, 2009; active means well fitted curve in the direction sought with a large enough effect; inconclusive means small, poorly fitted or top-dose-only effect, or another doubt; inactive means no such curve, though single readings can be large; an effect the other way counts as inactive or inconclusive;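 further: plate controls were neutral wells for no effect and buffer without enzyme for full effect; nearly all actives have a fitted effect of over 40% in size; top concentration of the series not given in the record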
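15 min RT preincubation of 1.5 nM cruzain with compound, then 2 uM Z-FR-AMC added; kinetic AMC fluorescence, 60 s delta. Triton X-100 0.01%, pH 5.5.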
Starred values were filed as active, the others as inactive; u = inconclusive; x = no result given; & = joins results of further samples; [ ] = another dose, or the depositor's remark. Unless noted, the call rests on the fitted dose curve; in most records, active means well fitted rising curve with a large enough effect; inconclusive means small, poorly fitted or top-dose-only effect; inactive means no such curve, though single readings can be large or run the other way. Potency means the concentration at half of the fitted maximal effect. Outcome played no part in choosing rows. Share with any hit: about 4.7%.

SMILES	RE007 growth inh	NS1 function inh	Marburg entry inh	Cruzain noTriton	Lassa entry inh	2A StopGo	SARS PLP yeast	Cruzain inh Det
CCN(c1ccccc1)S(=O)(=O)c1cccc(C(=O)N2CCN(S(=O)(=O)c3ccccc3)CC2)c1	13.1%	15.1%	-21.4%	x	u	u	1.9%	x
O=c1oc2cc(OCc3ccc(F)cc3F)ccc2cc1-c1ccc2ccccc2n1	x	8.5%	4.3%	12.6µM*	0.0%	x	u	-1.9%
CC(=O)N1N=C(c2cccc(NS(=O)(=O)c3ccc(C)cc3)c2)CC1c1ccco1 (stereo not given)	-1.4%	7.7%	u	x	u	-29.0%	1.2%	x
Nc1ccccc1C(O)(Cc1ccccc1)c1ccccc1 (stereo not given)	-4.8%	12.2%	3.5%	x	2.3%	-24.0%	-6.5%	x
O=C(Cn1c(NCCO)nc2ccccc21)NCCc1ccccc1	-21.5%	-3.8%	-1.7%	-4.5%	6.2%	2.1%	1.2%	-2.8%
CC(=O)CSc1nc2ccc(Nc3nc(N4CCOCC4)nc(N4CCOCC4)n3)cc2s1	6.8%	11.4%	u	u	-12.7%	-9.6%	-0.9%	-8.1%
CC(=O)NC(Cc1ccccc1C)C(=O)NC1CCN(C(=O)NCc2ccccc2)CC1 (stereo not given)	2.2%	9.0%	-11.2%[46.1 µM]	x	x	17.4%	3.4%	x
O=C(COc1ccc(C(=O)Nc2ccc(Cl)cc2)cc1)NCc1ccccc1	6.1%	17.5%	-10.0%	u	11.7%	-7.3%	-1.6%	-0.3%
CCCc1cc(=O)oc2c(C)c(OCC(=O)N3CCC(C(N)=O)CC3)ccc12	8.6%	11.0%	x	x	x	-12.9%	-0.9%	x
O=C(NCCn1ccc2ccccc21)c1cccc([N+](=O)[O-])c1	1.9%	x	9.2%[46.1 µM]	x	4.3%	-3.1%	-4.4%	x
CCCCN1C(=O)C(C2c3ccccc3C(=O)N2Cc2ccccc2)C(=O)NC1=S (stereo not given)	1.7%	-1.1%	8.0%	13.3%	21.9%	-14.4%	1.7%	0.3%
COc1cccc(Nc2nc(-c3cccnc3)cs2)c1	0.9%	-42.0%	x	x	x	25.8%	5.2%	x
COc1cc(CNc2ccc3c(c2)CCC3)cc(OC)c1O	12.8%	8.5%	1.6%	-2.2%	-5.7%	39.4%[activator]	4.4%	-0.3%
O=C(CCCc1nc2ccccc2s1)Nc1nccs1	18.5%	-16.8%	u	-1.9%	-2.2%	10.8%	-3.6%	-0.3%
CCOC(=O)c1nnn(CC(=O)N2N=C(c3ccc(Cl)cc3)CC2c2ccc(OC)cc2)c1C(=O)OCC (stereo not given)	-20.9%	-1.2%	4.5%	21.7%	-2.8%	-11.7%	26.7%	-3.3%
O=C1C(Cl)=C(Nc2cccc(O)c2)C(=O)N1Cc1ccccc1	1.1%	x	-18.7%[46.1 µM]	x	-2.6%	-25.0%	-1.6%	x
c1ccc2c(NC3CCCC3)nnc(NC3CCCC3)c2c1	24.4%	-17.3%	u	-27.9%	20.9%	-26.2%	5.7%	u
COc1ccc(N2CCOCC2)c(NC(=O)c2ccc3c(c2)OCO3)c1	-12.9%	-9.2%	-15.2%[46.1 µM]	x	11.9%	-11.7%	-1.5%	x
O=C(O)c1ccc(-c2nc(-c3ccccc3Cl)cs2)cc1	u	-8.5%	-6.4%[46.1 µM]	x	u	11.3%	-1.8%	x
O=C(COc1ccc(Cl)cc1)N1CCCCCCC1	1.5%	7.2%	u	x	-8.5%[46.1 µM]	0.3%	-3.2%	x
COc1ccccc1-c1cnn2c(NCCc3ccccc3)cc(C)nc12	u	-7.6%	-1.6%[46.1 µM]	x	-32.5%[46.1 µM]	27.7%	-2.4%	x
CC(=O)N1Cc2[nH]c3ccccc3c2CC1C(=O)O (stereo not given)	-2.9%	9.3%	1.9%	x	-2.9%	-4.7%	-14.1%	x
CCCS(=O)(=O)c1ncc(Cl)c(C(=O)Nc2c(C(=O)c3ccccc3)oc3ccccc23)n1	x	x	-5.6%[46.1 µM]	-6.9%	11.9%[46.1 µM]	u	x	-1.3%
CCOC(=O)c1ccc(NC(=O)C2(c3ccc(OC)cc3)CCOCC2)cc1	0.4%	-12.9%	-12.3%	13.6%	u	-22.2%	-3.4%	0.0%
CC(=Nc1ccccc1N)c1c(O)n(C)c(=O)[nH]c1=O	-20.3%	-30.7%	7.6%	x	1.2%	-11.3%	-8.9%	x
O=C(Nc1cccc(N=Cc2cc(Br)cc(Br)c2O)c1)c1ccco1	-22.4%	-13.3%	18.9%&1.8%	u	-18.0%&5.0%	13.5%	-47.7%	-16.7%
N#Cc1ccccc1S(=O)(=O)N1CCCC(c2nc3c(nnn3Cc3cccc(Cl)c3)c(=O)[nH]2)C1 (stereo not given)	x	x	-10.9%[46.1 µM]	u	-15.8%[46.1 µM]	-11.5%	x	2.6%
CCC1(c2ccc(F)cc2)NC(=O)N(CC(=O)N2CCN(S(=O)(=O)c3ccc(C)cc3)CC2)C1=O (stereo not given)	-16.9%	x	-6.4%	x	-0.8%	0.0%	4.9%	x
CS(=O)(=O)N(CC(=O)NCc1ccccc1Cl)Cc1ccccc1	5.9%	2.8%	20.7%	-0.2%	-14.5%	7.1%	-18.2%	-2.0%
CCCCCOC(=O)Cc1c(O)c2ccccc2n(C)c1=O	-5.8%	-178.7%	3.7%	-5.6%	-6.1%	2.3%	-17.6%	4.4%
CCCCc1ccc(-c2nc(NC(=O)C3C4CCC(O4)C3C(=O)O)sc2C)cc1 (stereo not given)	x	-115.3%	1.0%	7.5%	x	x	-28.8%	-17.1%
CCN(/N=C/C=C/c1ccccc1)c1cc(=O)n(C)c(=O)[nH]1	-14.0%	2.6%	-1.5%	u	3.4%	-15.8%	-9.0%	-6.5%
Cc1ccc(C(=O)Nc2ccc3c(c2)C(=O)N(CC2CCCO2)C3=O)cc1 (stereo not given)	-8.3%	-4.6%	-11.3%	x	u	u	-5.2%	x
COc1ccc([N+](=O)[O-])c(OC)c1C(=O)NC(=O)Nc1c(C)cccc1C	-1.1%	-2.3%	x	x	x	-22.4%	-1.4%	x
COc1ccc(Cl)cc1NC(=O)COc1cccc(-n2cnnn2)c1	10.3%	1.2%	4.4%	-12.4%	4.2%	-20.3%	-0.3%	-0.1%
COCCNC(=O)CSc1nc2ccccc2c(=O)n1-c1cccc(OC)c1	-8.0%	-6.0%	-21.5%	1.5%	-5.6%	-18.8%	-1.9%	3.3%
Cn1c(=O)c2c(nc(CN3CCN(c4ccccc4F)CC3)n2Cc2ccccc2F)n(C)c1=O	x	x	-1.1%[46.1 µM]	-14.7%	-23.8%[46.1 µM]	-15.1%	x	-0.1%
COc1ccccc1NC(=O)Cc1csc(NC(=S)Nc2ccccc2)n1	16.2%	17.5%	u	-3.9%	-24.9%	u	5.5%	-8.5%
NC(=O)c1ncc(C(F)(F)F)cc1Oc1ccc(F)cc1	-0.5%	-2.8%	15.6%	0.2%	-3.7%	-12.5%	8.8%	0.4%
CCn1c(=O)c2ccccc2n(CC(=O)N2CCCc3ccccc32)c1=O	2.8%	4.6%	x	x	x	-17.3%	0.1%	x
CN(C)CCCn1c2c(c(SCC(=O)Nc3ccc4c(c3)OCCO4)nc1=O)CCC2	7.4%	x	u	x	16.0%	-6.6%	-4.2%	x
CC(NC(=O)c1ccccc1)c1ccc(F)cc1 (stereo not given)	-12.9%	-4.9%	-2.3%	13.9%	-4.5%	-12.3%	-10.7%	-2.6%
Cc1ccc(-c2nn(-c3cc(Cl)ccc3[N+](=O)[O-])c(=O)c3ccccc23)cc1C	6.1%	26.4%	u	12.6µM*	u	-2.7%	2.9%	0.0%
CCOc1ccc2[nH]c(=O)c(CN(Cc3ccc(F)cc3)C(=O)N3CCCC3)cc2c1	-19.1%	-0.1%	13.5%[46.1 µM]	-1.2%	3.3%	u	5.8%	5.0%
CCS(=O)(=O)N1CCC(C(=O)N2CCc3ccccc3C2)CC1	-17.5%	-13.3%	u	0.9%	15.4%	-15.6%	-6.9%	0.7%
Cc1nnc(-c2cnn(C)c2N)n1CCCN1CCOCC1	-1.4%	x	9.6%[46.1 µM]	x	3.0%[46.1 µM]	23.9%	-2.3%	x
Cc1ccc2occ(CC(=O)Nc3ccc(S(=O)(=O)N4CCCC(C)C4)cc3)c2c1 (stereo not given)	x	x	-25.2%[46.1 µM]	u	u	-6.6%	x	-6.7%
CC(=O)N1CCC(N(CCCOC(C)C)S(=O)(=O)c2ccc([N+](=O)[O-])cc2)CC1	-9.9%	-2.3%	x	x	x	10.7%	-2.2%	x
Cn1c(=O)n(CCc2ccccc2)c(=O)c2c1nc1n2CCCN1Cc1ccccc1	1.9%	-61.6%	u	8.1%	15.8µM*	20µM*	-4.8%	-5.1%
O=C(NNc1ccccc1)/C(=C\c1cccnc1)NC(=O)c1ccccc1	34.7%	2.4%	x	x	x	1.2%	0.1%	x
COc1ccc(C2CC(c3ccccc3)=NN2C(=O)COC(=O)c2cccnc2)cc1 (stereo not given)	9.4%	0.7%	16.3%	15.8µM*	1.4%	-5.1%	-41.0%	-7.7%
CC(C)c1ccc(NC(=O)CCNS(=O)(=O)c2cc(Br)cnc2N)cc1	-6.0%	9.1%	x	x	x	0.0%	-2.7%	x
O=C(N/N=C/c1ccc(COc2ccc(Br)cc2)o1)c1ccco1	20.2%	4.9%	5.6%	24.4%	-2.9%	-15.8%	-9.3%	-4.9%

High-throughput results as filed in PubChem.
